# PINK1 modulator – PINK1 expression modulation. Potency, µM (titrated, usually from 76.6 µM), for the others: top-dose activation (PINK1 increase), most hits filed as activators. 410,000 tested, 0.2% active. AID 624263. PINK1 immunofluorescence, high-content cytometry, 24 h; active = well fitted activation curve with a large enough effect; inconclusive = small, poorly fitted or top-dose-only effect; inactive = flat fitted curve, though single readings scatter; cell line not stated here;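 also: potency is read from the fitted curve at half-maximal effect; % of control where 0% means no effect; nearly all actives have a fitted effect of over 65% in size; a mitochondrial uncoupler was the plate control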
#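 A stable cell line was treated with compounds at 5 concentrations for 24 hours, with CCCP as control. PINK1 levels and mitochondrial localization were measured by immunofluorescence with mitochondrial, cell and nuclear markers after fixation, read by laser-scanning cytometry.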
# Menin-MLL FL inh – menin-MLL binding inhibition, fluorescein peptide; Fluorescence polarization, fluorescein-MLL peptide displacement from menin; FP activity change, % at 61.4 µM; 290,000 tested, under 10 active; inconclusive = falling polarisation curve, or a change in total fluorescence; inactive = total fluorescence flat and polarisation flat or rising; no compound was filed as active; the % refers to the polarisation; negative = inhibition;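 also: % of control where 0% means no effect; inhibitors lower the polarisation; unlabelled MLL peptide was the positive control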
# ClpP mod – qHTS Assay for Activators of ClpP; ATP-dependent Clp protease proteolytic subunit (Bacillus subtilis (strain 168)), P80244; purified B. subtilis ClpP, FRET peptide cleavage, 20 min; Potency, µM (doses to about 57.5 µM), without a hit: at the top dose activity change, negative = active; 340,000 tested, 1.9% active; active = well fitted falling curve with a large enough effect; inconclusive = small, poorly fitted or top-dose-only effect; inactive = no such curve, though single readings can be large or run the other way; also: potency is read from the fitted curve at half-maximal effect; the source files actives as falling curves though it sought activators and does not explain the sign; nearly all actives have a fitted effect of over 65% in size; many hits overshoot -100%
# Target sequence (P80244 whole entry, looked up): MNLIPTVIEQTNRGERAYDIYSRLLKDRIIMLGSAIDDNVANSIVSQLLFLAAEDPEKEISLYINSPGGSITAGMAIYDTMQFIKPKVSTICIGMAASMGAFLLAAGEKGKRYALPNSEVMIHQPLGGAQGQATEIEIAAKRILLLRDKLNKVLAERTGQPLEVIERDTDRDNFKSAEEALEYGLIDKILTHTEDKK
#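 Buffer: 100 mM Tris/HCl pH8, 100 mM KCl, 0.05% low protease BSA, 2.5% glycerol, 0.01% Tween-20. ClpP 10 microg/mL final; 20 min RT; delta FRET normalized to ADEP and DMSO controls.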
# TRPML1 blocker – inhibitors of human TRPML1 channel | activity change, negative = inhibition, % (no concentration beside the values) | TRPML1-inducible cells, Ca2+ dye fluorescence, FDSS; hits give low values; inhibition of EC80 agonist-evoked calcium signal | AID 624415 | 390,000 tested, 0.02% active | Q9GZU1; in the data active means activity change below about -50%; inconclusive means about -30% to -50%; inactive means above about -30%;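 also: stimulus is agonist 54-4 at its EC80 concentration; % is scaled to controls: 0 for no effect and ±100 for the full control effect; compound concentration not given in the record; the text of the record puts the active cut at -80%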
#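 Tet-induced TRPML1-DL cells loaded with Ca8 no-wash calcium dye were read kinetically on FDSS. Compound addition was followed by EC80 agonist 54-4 (4 uM final); inhibition was read over 110 s.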
# TRPML1 ag – activates the human TRPML1 channel; activation, % (test concentration not listed); 410,000 tested, 0.12% active; TRPML1-expressing cells, Ca2+ dye fluorescence, FDSS; host cell line not named in the record; reference of the full effect not given here; Q9GZU1; in the data active = activation above about 50%; inconclusive = about 30% to 50%; inactive = below about 30%; also: 0% is about no effect; the text of the record puts the active cut at 80%
#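 In this qHTS format, compounds were pin-transferred onto Ca8-dye-loaded TRPML1-DL cells induced with Tet overnight, and intracellular Ca2+ fluorescence was recorded kinetically for 110 s after a 10 s baseline. A subsequent 4uM final 54-4 (EC80) addition followed by a second 110 s read served as the antagonist phase.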
# TRPV1 potentiator – enhances activation of the human vanilloid receptor TRPV1; 320,000 tested, 0.02% active; AID 540277; potentiation, % at 8.33 µM; TRPV1-expressing cells, Fluo-8 calcium influx, capsaicin EC20 potentiation; host cell line not named in the record; control for the full effect not named in the record; active means potentiation above 80%; inconclusive means 30% to 80%; inactive means below 30%; also: 0% is about no effect
# Target sequence (Q8NER1 whole entry, looked up): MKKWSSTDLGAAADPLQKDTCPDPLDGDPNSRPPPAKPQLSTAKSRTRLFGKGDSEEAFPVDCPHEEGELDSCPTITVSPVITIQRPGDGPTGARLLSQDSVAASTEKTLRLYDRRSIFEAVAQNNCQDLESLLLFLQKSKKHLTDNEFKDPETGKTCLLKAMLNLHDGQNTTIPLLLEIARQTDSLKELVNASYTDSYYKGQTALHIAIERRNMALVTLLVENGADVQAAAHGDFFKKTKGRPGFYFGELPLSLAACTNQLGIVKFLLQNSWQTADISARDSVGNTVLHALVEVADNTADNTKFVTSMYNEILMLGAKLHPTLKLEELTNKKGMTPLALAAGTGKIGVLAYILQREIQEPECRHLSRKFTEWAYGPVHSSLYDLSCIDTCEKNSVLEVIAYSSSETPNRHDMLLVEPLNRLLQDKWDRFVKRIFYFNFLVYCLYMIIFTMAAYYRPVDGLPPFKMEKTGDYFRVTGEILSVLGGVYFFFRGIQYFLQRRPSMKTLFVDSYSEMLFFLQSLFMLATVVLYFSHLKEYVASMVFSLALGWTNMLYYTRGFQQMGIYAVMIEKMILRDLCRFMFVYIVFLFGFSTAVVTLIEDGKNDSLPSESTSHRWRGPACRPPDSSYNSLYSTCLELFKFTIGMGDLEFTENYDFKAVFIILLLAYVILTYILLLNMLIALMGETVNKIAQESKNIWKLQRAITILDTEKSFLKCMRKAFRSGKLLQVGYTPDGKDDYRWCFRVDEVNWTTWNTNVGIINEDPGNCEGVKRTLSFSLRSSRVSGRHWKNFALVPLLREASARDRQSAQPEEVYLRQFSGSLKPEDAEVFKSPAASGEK
#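 TRPV1-expressing cells were cultured overnight at 35.5C and loaded with Fluo-8 calcium dye for 40 to 90 min at room temperature. After a 10 s baseline, compound was added and calcium influx was read kinetically for 3 min (ex 480/em 520 nm).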
# Sfp inh – inhibitors of Bacillus subtilis Sfp phosphopantetheinyl transferase. Q9F4F7. Biochemical Sfp PPTase activity, qHTS. Potency, µM, for inactives: max response, negative = inhibition, actives largely listed as inhibitors. 310,000 tested, 3.5% active. AID 1490; active = well fitted inhibition curve with a large enough effect; inconclusive = small, poorly fitted or top-dose-only effect, or another doubt; inactive = no such curve, though single readings can be large or run the other way;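 also: the enzyme is Sfp with the accession as filed and its product quenches rhodamine fluorescence; potency is read from the fitted curve at half-maximal effect; 0% = enzyme reaction without inhibitor and -100% = no enzyme wells; top concentration of the series not given in the record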
#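 Fluorescence-quenching assay: 15 nM Sfp-PPTase preincubated 15 min at room temperature with compound, then 5 uM rhodamine-CoA and 12.5 uM BHQ-2-labelled YbbR peptide added. Fluorescence (ex 525/em 598 nm) read at start and after 30 min; difference gives rate.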
# Active calls of the source: *; ? = inconclusive; . = not tested or not shown; [ ] = another dose, or the depositor's remark.
# The opening 3 compounds, to show the layout:
SMILES,PINK1 modulator,Menin-MLL FL inh,ClpP mod,TRPML1 blocker,TRPML1 ag,TRPV1 potentiator,Sfp inh
CC(Sc1nnc(C2CC2)n1C1CC1)C(=O)N(C)C1(C#N)CCCCC1 (stereo not drawn),1.3%,.,-1.3%,-8,0.8,-9,.
CC1CN/C(=C\C(=O)c2ccc(Cl)cc2)C(=O)N1 (stereo not drawn),-7.9%[38.3 µM],1.8,-1.6%,1,-0.3,24,-3%
Cc1cccc(NC(=O)[C@@H](NC(=O)[C@@H]2Cc3ccccc3CN2)C(C)C)c1,0.2%,1.1,1.5%,-7,-0.3,-1,0%

# Main list, from the first entry:
SMILES,PINK1 modulator,Menin-MLL FL inh,ClpP mod,TRPML1 blocker,TRPML1 ag,TRPV1 potentiator,Sfp inh
CC(Sc1nnc(C2CC2)n1C1CC1)C(=O)N(C)C1(C#N)CCCCC1 (stereo not drawn),1.3%,.,-1.3%,-8,0.8,-9,.
CC1CN/C(=C\C(=O)c2ccc(Cl)cc2)C(=O)N1 (stereo not drawn),-7.9%[38.3 µM],1.8,-1.6%,1,-0.3,24,-3%
Cc1cccc(NC(=O)[C@@H](NC(=O)[C@@H]2Cc3ccccc3CN2)C(C)C)c1,0.2%,1.1,1.5%,-7,-0.3,-1,0%
CCOC(=O)C1=CCC(c2ccc(F)cc2)N(S(=O)(=O)c2ccc(C)cc2)C1 (stereo not drawn),4.8%,.,-0.3%,82,0.5,.,.
CC(=O)Nc1ccc(NC(=O)/C(Cl)=C/c2ccccc2)cc1,-0.6%,0.5,35%,17,0.9,-4,-5%
CC(=O)c1cccc(NC(=O)C2CCN(S(=O)(=O)c3cccs3)CC2)c1,1.4%,2.7,1.6%,-12,0.0,-6,13%
O=C(CSc1nc2c(c(=O)[nH]1)CCC2)Nc1cccc(F)c1,-0.3%,-2.6,.,-4,0.0,7,19%
O=C(CC(C(=O)c1ccccc1)c1ccccc1)c1ccccc1 (stereo not drawn),7.7%,.,.,-22,1.2,.,.
COc1ccc(C(=O)NC2CCCCCC2)cc1S(=O)(=O)N1CCOCC1,0.0%,.,25µM*,-9,-0.4,8,20%
O=C(c1ccc(N2CCNCC2)cc1)c1cccnc1,1.5%,6.6,-0.9%,0,-0.2,1,6%
CCCCN1C(=O)/C(=C(/C#N)C(N)=O)c2ccccc21,1.3%,3.0,1.5%,-1,-0.3,-5,?
S=C(N/N=C/c1ccccc1)N1CCOCC1,1.6%,1.3,1.5%,1,-0.3,5,-9%
COc1ccc(CNC(=O)c2oc3c(c2C)-c2nn(Cc4ccc(Cl)cc4)cc2CC3)cc1,0.6%,.,?,30,0.6,.,.
Cc1ccc(C)c(NC(=O)CSc2nccn2-c2cccc(C)c2C)c1,0.7%,.,0.0%,20,1.3,.,.
CO/N=C/c1ccc(N2CCN(C(=O)c3ccc(C)cc3)CC2)c([N+](=O)[O-])c1,-8.8%[38.3 µM],0.3,-0.2%,5,-0.8,3,0%
O=C(CC(c1ccccc1)c1ccccc1O)NCCN1CCOCC1 (stereo not drawn),-0.1%,2.5,1.3%,-9,1.7,4,21%
COc1ccc(OC)c(NC(=O)CN2C(=O)CSc3ccc(S(=O)(=O)N4CCCC4)cc32)c1,-0.4%,1.0,0.6%,9,-1.0,-11,9%
Cc1ccc(CN2CCN(C/C=C/c3ccc(F)cc3)CC2CCO)o1 (stereo not drawn),1.0%,-3.0,-2.1%,-25,0.4,2,-9%
CCOC(=O)c1ccc(S(=O)(=O)NCC(C)(C)N2CCOCC2)cc1,0.8%,-2.1,-0.8%,15,2.9,-6,17%
Cc1ccc(C(=O)C[n+]2cccc(C(N)=O)c2)cc1,1.2%,3.3,.,-21,1.1,.,8%
CNC(=O)CSc1cnc2ccccc2n1,5.5%,-0.5,.,7,-0.4,1,26%
CCC(C)(C)NC(=O)CCCSc1nc2ccccc2[nH]1,0.5%,1.9,-0.2%,.,.,-17,9%
Cc1ccnc(NS(=O)(=O)c2ccc(Cl)nc2)c1,0.8%,6.6,.,-5,0.7,-12,5%
O=C(CN1CCN(c2ccccc2O)CC1)NC(c1ccccc1)c1ccccc1,-0.6%,3.8,0.9%,0,-1.1,-12,4%
NC(=O)c1ccsc1NC(=O)COC(=O)Cc1cccc2ccccc12,2.7%,5.4,-2.4%,2,-0.1,-16,-3%
Cc1ccc(C)c(OCCC(=O)OCC(=O)NC(=O)NCc2ccccc2)c1,6.7%,.,.,20,4.2,-15,.
CCC(=O)OC1=C(C(C)=O)N(Cc2ccccc2)S(=O)(=O)c2ccccc21,0.3%,.,0.6%,11,0.6,.,.
Cc1cccc(OCC(=O)NNC(=O)C2CCCCC2C(=O)O)c1 (stereo not drawn),-0.5%,5.2,-0.1%,-7,-0.6,5,6%
O=C(C[C@@H]1C/C=C\C[C@H](NC(=O)OCC2c3ccccc3-c3ccccc32)C(=O)O[C@H](c2ccccc2)CNC1=O)NCCO,-0.5%,.,-4.9%,-8,0.9,.,.
CCOC(=O)C1=C(O)C(=O)N(c2ccccc2)C1c1cccc([N+](=O)[O-])c1 (stereo not drawn),5.1%,3.7,1.5%,2,0.0,?,-9%
Cc1ccc(CNC(=O)c2cn(C3CCCC3)c(=O)c3c2c2ccccc2n3C)o1,.,-0.1,.,.,.,-8,1.4µM*
COc1cc(OC)c(Cl)cc1N,-0.1%,2.7,0.0%,-8,-0.6,14,6%
CCOC(=O)c1c(C)n(C)c2ccc(OCC(O)CN3CCC(C)CC3)cc12 (stereo not drawn),1.6%,-1.9,-0.2%,2,-0.5,-3,-20%
CCOC(=O)c1nn(C23CC4CC(CC(C4)C2)C3)c2c1C(=O)N(c1ccc(C)cc1)C2=O,-0.7%,-0.3,-0.9%,35,-0.6,5,-5%
COCC(C)N1CCC(n2nccc2NC(=O)CCOc2ccccc2)CC1 (stereo not drawn),-1.4%,.,1.5%,8,-0.1,-13,18%
Cc1ccc(Nc2c([N+](=O)[O-])c(=O)n(C)c3ccccc23)cc1C,5.0%[38.3 µM],2.6,-0.2%,25,0.6,18,-29%
C[n+]1ccccc1/C=C/c1ccc(F)c(F)c1,-1.4%,0.9,.,10,-0.2,-2,4%
Fc1cccc(NC(=S)N2CCc3ccccc32)c1,1.3%,.,1.6%,15,-0.8,4,8%
CCOc1ccc(CCNC(=O)c2cc3sc(Cl)cc3n2C)cc1OCC,6.7%,4.6,1.1%,-5,5.6,5,13%
Cc1ccc(C)c(NS(=O)(=O)c2cc(Br)cnc2N)c1,9.8%,1.5,-1.6%,2,1.1,5,7%
Cc1ccc(S(=O)(=O)N2CCN(c3cccc(C)c3)CC2)cc1,0.3%,6.2,-0.8%,5,0.4,3,-11%
O=C(Nc1ccccc1)N1CCSCC1,-0.3%,4.6,-0.7%,-19,0.1,-1,6%
Cc1nc(CSc2nsc(/C=C/N(C)C)c2C#N)cs1,-0.4%,?,.,-1,0.7,-24,?
Cc1ccc(Sc2nc(C)cc(C)c2S(C)(=O)=O)cc1,-0.3%,9.2,0.9%,-6,-0.6,-5,0%
O=C(NNC(=O)c1c(F)cccc1F)c1ccccc1-n1cccc1,-2.3%,-1.9,.,34,0.2,9,25%
CC12CCC(=O)N1C(C(=O)OCC(=O)Nc1ccc(Cl)c(Cl)c1)CS2 (stereo not drawn),0.2%,5.5,.,8,0.2,-3,18%
CCC1([N+](=O)[O-])COC(c2ccc(C(C)C)cc2)OC1 (stereo not drawn),5.5%,.,.,-14,-1.2,.,.
CC(=O)Nc1ccc(C(=O)COC(=O)c2ccco2)c(F)c1,0.2%,.,-1.0%,9,-0.7,-6,.
O=C(O)/C=C/C(=O)NCC1CCC(CNC(=O)/C=C/C(=O)O)CC1 (stereo not drawn),3.3%,-0.8,.,-12,0.8,6,-4%
COCCNC(=O)C1CCC(Cn2c(=S)[nH]c3ccccc3c2=O)CC1 (stereo not drawn),-0.7%,-1.6,-2.2%,7,1.1,3,13%
S=c1[nH]nc(-c2cccnc2)o1,-27%[38.3 µM],-1.0,-4.8%,-7,-0.2,6,56µM*
Cc1ccc(S(=O)(=O)Nc2ccc(NC(=O)c3cccs3)cc2)cc1,3.8%,-1.9,1.8%,-9,1.8,-11,8%
CC(=O)c1cccc(NC(=O)N2CCCC2C(=O)Nc2c(C)cccc2C)c1 (stereo not drawn),0.3%,-0.9,-4.1%,4,1.0,10,16%
OC(CNCCC1C=Nc2ccccc21)Cn1c2ccc(Cl)cc2c2cc(Cl)ccc21 (stereo not drawn),-5.7%,0.2,28µM*,-16,1.4,-6,11µM*
O=C(OCC(=O)N1CCN(c2ccccc2)CC1)c1ccccn1,-3.5%,2.1,-2.9%,18,0.6,3,7%
O=C(c1ccccc1)N1CCN(Cc2c[nH]c3ccccc23)CC1,-0.4%,0.2,-3.2%,4,1.6,5,13%
Cc1ccc(C)c(C(=O)CCC(=O)N2CCN(c3ncccn3)CC2)c1,5.2%,1.2,.,-2,-0.3,9,1%
COc1ccccc1NC(=O)C(C)OC(=O)C1CCC(C(C)(C)C)CC1 (stereo not drawn),?,.,-4.6%,45,0.9,14,.
CCOC(=O)c1ccc(NC(=O)CC(=O)Nc2ccc3nc4n(c(=O)c3c2)CCCCC4)cc1,2.3%,.,-7.5%,15,-0.6,.,.
OCCN1CCN(C(c2ccccc2Cl)c2sc3nc(-c4ccco4)nn3c2O)CC1 (stereo not drawn),0.4%,.,-1.6%,15,0.5,.,.
# Next structures follow:
SMILES,PINK1 modulator,Menin-MLL FL inh,ClpP mod,TRPML1 blocker,TRPML1 ag,TRPV1 potentiator,Sfp inh
CC(=O)Nc1ccc(NC(=O)CCc2nc3cccnc3n2Cc2cccs2)cc1,-0.5%,.,-13%,-8,-0.4,.,.
CNC(=S)N(CCc1cccc(C)c1)Cc1cc2cc(OC)c(OC)cc2[nH]c1=O,1.0%,1.9,?,13,-0.3,-2,?
C=CCn1c(CCCNC(=O)C(C)(C)C)nc2ccccc21,0.7%,0.7,0.1%,1,-0.3,-3,6%
Cn1cccc1-c1cc(C(=O)N/N=C/c2ccc([N+](=O)[O-])cc2)[nH]n1,0.6%,-5.5,.,-8,0.2,6,-2%
CCC(=O)N/N=C(\C)CC(=O)Nc1ccc(F)cc1,2.8%,0.4,0.0%,0,-0.4,0,7%

# Source: PubChem
